Screening results as filed in PubChem.
RanGTP-Imp inh – disruptors of Ran-importin-beta complex formation – biochemical, FRET, CFP-Ran, YFP-importin-beta, homogeneous, primary screen; cell-free CFP-Ran/YFP-importin-beta FRET ratio; 300,000 tested, 1.1% active; inhibition, % (test concentration not listed);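 active means most replicates above 15%; inconclusive means exactly half above 15%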;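 further: 0% = DMSO wells and 100% = Ran loaded with GDP instead of GTP; wells of about 40 µL received 100 nL stock; the first replicate is given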
Bfl-1 A1 inh – inhibitors of the anti-apoptotic protein A1, read as caspase activation; MEF A1-2A-BIM cells, Caspase-Glo 3/7 luminescence, 3 h; percent of clofoctol response, vehicle zero; caspase activation, % (test concentration not listed); 330,000 tested, 0.066% active;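 active means over half of replicate activation scores above 10%, or exactly half above 10 with the replicate mean above 10; inconclusive means replicate mean below 10 yet half the replicates above 10; inactive means over half of replicates below 10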;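 further: wells of about 30 µL received 50 nL stock; many hits fall short of the cut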
UCH37 inh – inhibitors of human deubiquitinating enzyme UCH37. inhibition, % (no concentration beside the values). purified proteasome/UCH37, Ub-AMC cleavage fluorescence. Q9Y5K5. 330,000 tested, 0.33% active. AID 588478;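 active means mean of two replicates above 20%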;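 further: 0% = compound-free wells with enzyme and 100% = wells lacking proteasome; stock transfer was 100 nL into about 20 µL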
Target sequence (Q9Y5K5 whole entry, looked up): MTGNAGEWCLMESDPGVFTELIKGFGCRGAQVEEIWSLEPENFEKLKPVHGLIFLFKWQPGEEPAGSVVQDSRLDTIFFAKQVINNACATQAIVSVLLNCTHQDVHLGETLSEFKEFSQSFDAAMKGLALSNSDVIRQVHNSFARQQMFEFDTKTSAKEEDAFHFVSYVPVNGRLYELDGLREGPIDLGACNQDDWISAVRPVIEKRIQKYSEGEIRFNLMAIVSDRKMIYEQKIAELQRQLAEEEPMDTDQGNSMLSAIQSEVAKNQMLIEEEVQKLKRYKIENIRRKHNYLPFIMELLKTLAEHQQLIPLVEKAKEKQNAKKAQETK
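Reagent: Ub-AMC substrate; assay system: Proteasome-associated human UCH37 deubiquitinase; controls: no-proteasome and no-compound wells; read-out: % inhibition of Ub-AMC cleavage fluorescence; timing: 30 min preincubation with enzyme, 25 min cleavage at room temperature; signal: AMC fluorescence from Ub-AMC cleavage, excitation 355 nm, emission 460 nm; buffer or medium: Tris-HCl pH 7.4 plus ovalbumin, ATP-MgCl2, DTT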
Calb FLC – C. albicans growth modulation with fluconazole | C. albicans CaCi-2 (fluconazole-resistant clinical isolate) + fluconazole, Alamar Blue growth, 48 h | growth inhibition, % (test concentration not listed) | 300,000 tested, 0.57% active | AID 1979;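 active means most replicates above 75%; inconclusive means exactly half above 75%; inactive means most below 75%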;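 further: all wells also contain fluconazole at 8 µg/ml as a sub-toxic cotreatment; 0% = median of DMSO wells and 100% = median of geldanamycin control wells; wells of about 8 µL received 7.5 nL stock; the first replicate is given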
Beta cell apopt – blocks beta cell apoptosis; INS-1E cytokine-induced death, ATP luminescence, 48 h; percent of positive-control rescue, neutral wells zero; protection from apoptosis, % (test concentration not listed); 300,000 tested, 0.8% active;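 active means all replicates at 75% or more, or half of them and the mean; inconclusive means half reach 75% but not the mean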;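 further: 0% = cytokine-treated negative control wells and 100% = positive control rescue; higher means more ATP so stronger rescue from cytokine killing; wells of about 40 µL received 100 nL stock; the first replicate is given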
LANA-H2B inh – blocks KSHV LANA binding to histone H2A/H2B. inhibition, % (test concentration not listed). cell-free LANA-H2A/H2B peptide, fluorescence polarization. 320,000 tested, 0.6% active. Q9QR71; in the data active means inhibition mostly above about 10%, no sharp cut-off; inactive means mostly below about 6.7%;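 further: stock transfer was 7.5 nL into about 10 µL; 0% = median of vehicle wells and 100% = median of positive control wells; one replicate is shown; the record names a cut of 25% in any replicate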
T cruzi repl – T. cruzi replication inhibition. T. cruzi beta-gal in NIH3T3, luminescence, 90 h. inhibition, % (test concentration not listed). 300,000 tested, 1.4% active. AID 1885;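 active means mean inhibition across valid replicates above about 55%, limit read from the data; inconclusive means mean below that limit but half or more replicates reach it; inactive means mean below it, under half of replicates reach it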;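 further: signal also drops with host cell toxicity which is not excluded here; 0% = plate median of DMSO wells and 100% = zero luminescence signal; higher percent means less beta-gal luminescence so fewer parasites; stock transfer was 50 nL into about 50 µL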
B2AR ag – human beta-2 adrenergic receptor agonism by FAP; P07550; Am2.2-beta2AR cells, FAP receptor internalization, flow cytometry; reference of the scale not given here; 340,000 tested, 0.43% active; response, % (no concentration beside the values);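 active means response above a set limit, near 3 SD of response in nonfluorescent compounds, cut at about 42% in these data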;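 further: stock transfer was 100 nL into about 11 µL; a reference agonist was the positive control; negative values mostly stem from fluorescent compounds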
Target sequence (P07550 whole entry, looked up): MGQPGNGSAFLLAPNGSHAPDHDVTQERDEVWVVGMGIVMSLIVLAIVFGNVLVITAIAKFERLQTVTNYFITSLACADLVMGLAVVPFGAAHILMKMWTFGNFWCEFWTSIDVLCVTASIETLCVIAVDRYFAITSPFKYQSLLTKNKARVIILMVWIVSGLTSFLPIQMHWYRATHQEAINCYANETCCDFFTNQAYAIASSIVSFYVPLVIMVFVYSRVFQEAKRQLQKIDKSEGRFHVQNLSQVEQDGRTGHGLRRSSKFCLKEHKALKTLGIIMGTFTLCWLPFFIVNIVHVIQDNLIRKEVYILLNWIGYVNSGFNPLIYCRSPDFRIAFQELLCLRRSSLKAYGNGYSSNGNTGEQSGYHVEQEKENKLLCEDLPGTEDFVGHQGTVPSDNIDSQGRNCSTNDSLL
The depositor's hits bear a star; ? = inconclusive; . = not tested or not shown.

SMILES | RanGTP-Imp inh | Bfl-1 A1 inh | UCH37 inh | Calb FLC | Beta cell apopt | LANA-H2B inh | T cruzi repl | B2AR ag
COC(=O)C1CN(S(=O)(=O)c2ccc(NC(C)=O)cc2)CCS1 (stereo not given) | -0.6 | 1.3 | 1.1 | 0 | -4 | 9.2 | -14 | 2
CCOc1ccc(NC(=O)CCC(=O)c2ccc(Br)cc2)cc1 | 2.0 | 0.4 | -0.4 | 2 | -3 | -0.1 | 13 | 5
COc1cc(CNC(=O)C2CCCC2)cc(OC)c1OC | 4.0 | 0.1 | 2.4 | -4 | 2 | 6.2 | -7 | -9
Cc1ccc(C(=O)NC2CCCN(c3ccc(C(F)(F)F)cn3)C2)cn1 (stereo not given) | 8.2 | 0.9 | 1.1 | -3 | -1 | -2.1 | -8 | -6
O=C(CC1OCC2CCCN2C1=O)Nc1ccc([N+](=O)[O-])cc1 (stereo not given) | -3.0 | 0.2 | 7.9 | 1 | -2 | -0.1 | 0 | 1
COc1ccc2c(C=O)cn(C)c2c1 | -1.0 | -0.3 | 1.8 | -3 | -3 | -16 | -16 | 10
COc1ccc(N2CC(C(=O)NC3=NCCS3)CC2=O)cc1 (stereo not given) | -3.8 | 1.5 | 2.0 | -3 | -8 | 4.8 | -13 | 1
CCOC(=O)/C(C#N)=C/c1ccc(OC)c(OC)c1 | 2.9 | -0.5 | 6.6 | 8 | -12 | -0.8 | -9 | 6
Nc1nc(Nc2ccccc2)nc2ccccc12 | 0.6 | -13 | -2.3 | 4 | 35 | 1.7 | ? | -5
Cc1n[nH]c(C)c1SCC(=O)Nc1ccc(F)cc1 | 9.0 | 0.6 | 0.6 | 21 | -9 | 1.9 | -1 | 2
COc1cc2cnc(CCO[C@H]3CCCCO3)cc2cc1OC | . | 0.5 | -0.2 | . | 1 | -3.2 | . | 6
CCC1(C)Cc2ccccc2-c2nc(SCC(N)=O)[nH]c(=O)c21 (stereo not given) | -0.3 | 1.1 | 3.3 | 0 | . | -5.0 | 1 | -2
O=C(COC(=O)CSc1ccc([N+](=O)[O-])cc1)NCCCc1ccccc1 | -2.8 | -0.1 | 10.0 | -13 | -5 | 1.9 | 5 | -5
Cc1nc2ccccc2nc1CN1CCN(Cc2ccc(F)c(F)c2)C(CCO)C1 (stereo not given) | -0.6 | 0.1 | 0.1 | 14 | 0 | 8.7 | 6 | -4
CCOC(=O)c1ccc(N=C2SC(C(=O)Nc3ccc(C(=O)O)cc3)CC(=O)N2Cc2cccs2)cc1 (stereo not given) | -3.1 | 1.0 | -4.1 | 6 | -2 | 0.9 | -10 | 5
C=CCn1c(C)c(C(C)=O)c(N2CCOCC2)nc1=S | 6.0 | 0.1 | 6.6 | 12 | 1 | -1.3 | -6 | 2
Cc1nc(N2CCCCC2)c2ccsc2n1 | -5.9 | -0.8 | 4.9 | 18 | -8 | -1.5 | -7 | -15
Cc1cc(Br)c(NC(=O)Cn2c([N+](=O)[O-])cnc2C)cc1C | 4.4 | 0.9 | 2.7 | -7 | -1 | -0.4 | 7 | 0
Cc1cc(C)nc(N2CCCC(C(=O)NCC(c3ccccc3)c3ccccc3)C2)n1 (stereo not given) | -3.1 | 1.6 | 1.0 | -8 | 2 | -0.8 | 14 | 3
O=C(O)CN1C(=O)/C(=C\c2cn(CC(=O)N3CCOCC3)c3ccccc23)SC1=S | -149 | 0.4 | 24* | 8 | -6 | -98 | 13 | 17
Cc1ccc(/C=N\NC(=O)Cc2cccn2C)o1 | -1.2 | 1.0 | . | ? | . | 7.6 | -13 | -1
COc1cccc(OC)c1C(=O)Nc1ccc2c3c(cccc13)CC2 | -6.4 | 0.3 | 3.9 | 0 | 0 | 3.8 | -7 | 4
Cc1nc2nc(C)n(-c3ccccc3)c2s1 | . | 0.6 | 3.3 | . | -6 | 1.0 | . | 2
CN(C)CCN1C(=O)C2C(C(=O)Nc3cc(Cl)cc(Cl)c3)C3C=CC2(O3)C1C(=O)NC1CCCCC1 (stereo not given) | 0.3 | 0.0 | 6.1 | 4 | -5 | 1.3 | 11 | 4
Cc1ccc2nc(SCC(=O)NCc3ccc(S(N)(=O)=O)cc3)[nH]c2c1 | 4.1 | -0.3 | 5.4 | 6 | -2 | 0.3 | -11 | -7

More compounds.
SMILES | RanGTP-Imp inh | Bfl-1 A1 inh | UCH37 inh | Calb FLC | Beta cell apopt | LANA-H2B inh | T cruzi repl | B2AR ag
COc1cc(C)nc(NCc2ccccc2)n1 | 1.5 | 1.0 | 1.0 | -7 | -5 | 1.2 | 8 | -7
COc1ccc(C)cc1NC(=O)c1ccc(OC(F)F)cc1 | -1.9 | -0.4 | 2.0 | -20 | 1 | 1.4 | -2 | 0
Cc1ccc(S(=O)(=O)N2CCN(C(=O)COC(=O)c3cc([N+](=O)[O-])ccc3NCCO)CC2)c(C)c1 | . | -0.7 | . | . | 5 | -1.3 | . | 4
CC(C)CCNC(=O)CCCOc1ccccc1 | 6.0 | -0.7 | 3.2 | -4 | . | 3.2 | -11 | 10
Cc1cccc(CS(=O)(=O)c2cn(CC(=O)N3CCOCC3)c3ccccc23)c1 | ? | 0.4 | 6.1 | -1 | -4 | 0.7 | 4 | 4
COCCCNC(=O)Cn1nnc(-c2ccc(NC(=O)c3ccccc3F)cc2)n1 | -0.1 | -0.1 | 2.4 | -2 | -3 | -0.1 | -6 | -1
CCCC(=O)Nc1cc2c(cc1C(C)=O)OCCO2 | 3.6 | -1.4 | -1.2 | -12 | -3 | -1.9 | 4 | -4
O=S(=O)(NC1CCCC1)c1ccc(-n2cnnn2)cc1 | 3.3 | 1.6 | 4.4 | 5 | 1 | -3.6 | -17 | 0
O=C(O)c1cccc2c1C(=O)c1ccccc1C2=O | 1.6 | 0.6 | 4.0 | -2 | -3 | -0.5 | -14 | -3
O=C(O)CCc1n[nH]c(=S)[nH]c1=O | 2.8 | -0.7 | 4.5 | 6 | 3 | -2.2 | -32 | -13
Brc1ccc(Nc2ncnc3[nH]ncc23)cc1 | 4.3 | 0.2 | -0.7 | 13 | -1 | -4.7 | -11 | 2
CC1CCCC(C)N1/N=C/c1ccc(Cl)cc1 (stereo not given) | -3.3 | 0.0 | . | 1 | -1 | 5.3 | -3 | 1
O=C(CN1CCN(Cc2ccccc2)CC1)N/N=C/c1cccnc1 | 0.1 | -0.2 | . | -18 | -2 | 1.6 | 4 | -8
CN1CC(c2ccc(Cl)c(Cl)c2)[C@@]2(COc3ccccc3C2=O)[C@@]12C(=O)Nc1ccccc12 (stereo not given in full) | -3.5 | 0.4 | . | -10 | 17 | 1.2 | 49 | 9
NC(=NC(=O)c1ccc(Cl)cc1)N1N=CCC1c1ccccc1 (stereo not given) | -2.1 | -0.1 | 6.5 | 41 | -4 | -2.3 | 33 | 6
COCCNC(=O)CN(c1ccc(OC)c(OC)c1)S(=O)(=O)c1ccc(C)cc1 | -1.8 | 1.0 | -1.4 | -7 | -3 | -7.0 | 15 | 3
COc1ccc(CCNC(=O)COC(=O)c2cnc(Cl)c(Cl)c2)cc1 | . | 3.2 | -0.7 | . | -4 | -2.0 | . | 13
COc1ccc(OC)c(NC(=O)c2cc(S(=O)(=O)NCc3ccco3)ccc2F)c1 | 1.6 | 0.3 | 2.4 | 40 | -3 | -4.7 | 6 | -3
O=C(Nn1cnc2ccccc2c1=O)c1ccc(Br)cc1 | 4.6 | -0.1 | 1.0 | -7 | 5 | -3.4 | -18 | -1
CCOc1ccccc1Oc1ccc(C(F)(F)F)cn1 | -2.0 | 0.9 | -6.3 | -10 | -3 | -0.3 | -25 | -2
CCN(c1ccc(NS(=O)(=O)c2cc(Cl)ccc2Cl)cc1)C(C)C | 4.0 | 0.0 | 0.6 | -9 | 5 | -7.2 | 23 | 1
COc1ccc(CNC(=O)c2cc(=O)c3ccc(C)c(C)c3o2)cc1 | 3.5 | -0.6 | 2.8 | -5 | 4 | 4.6 | 14 | 6
S=c1[nH]nc(-c2ccc(Br)cc2)n1Cc1ccco1 | -1.8 | 0.1 | -1.0 | ? | -4 | -4.3 | . | 3
CC[C@]12c3[nH]c4ccccc4c3CCN1C(=O)C(CC(=O)NCCCOC)C[C@@H]2C(=O)N1CCN(C(=O)C2CC2)CC1 (stereo not given in full) | . | 0.4 | 3.8 | . | -3 | -1.3 | . | -6
Cc1ccc(C(=O)CNc2ccc(C)cc2C)cc1 | 0.3 | 0.8 | 1.2 | -2 | 13 | 1.7 | 0 | 8

Continued:
SMILES | RanGTP-Imp inh | Bfl-1 A1 inh | UCH37 inh | Calb FLC | Beta cell apopt | LANA-H2B inh | T cruzi repl | B2AR ag
COc1cccc(CNC(=O)CC(NC(C)=O)c2ccccc2)c1 (stereo not given) | 2.2 | -0.4 | 0.0 | -3 | -1 | -0.2 | -11 | -2
O=C(CSc1nnnn1-c1ccc(F)cc1)NNC(=O)c1ccco1 | ? | -0.9 | 0.2 | -1 | -2 | 0.8 | -11 | 4
CCN(CC)CCC(=O)N1c2ccccc2Sc2ccc(Cl)cc21 | 1.9 | 0.4 | 2.8 | 12 | 8 | -2.6 | 4 | -11
COc1ccc(/C=N/Nc2cc(C)nc(-n3nc(C)cc3C)n2)c(OC)c1 | 4.9 | -3.1 | . | 16 | 82* | -1.5 | 37 | 14
Fc1ccc(-c2n[nH]c(=S)n2/N=C/c2c[nH]c3ccccc23)cc1 | 0.0 | -0.1 | . | -13 | -6 | 3.8 | -2 | -4
COc1ccc([N+](=O)[O-])cc1NS(=O)(=O)c1ccc(C)cc1 | -0.5 | -0.2 | 3.5 | 19 | 0 | 1.1 | 9 | 12
O=C(Nc1nnc(SCc2ccccc2Cl)s1)c1cccc([N+](=O)[O-])c1 | 0.3 | -1.1 | 3.5 | 5 | 13 | -1.3 | -15 | -4
O=C(CSCc1ccccc1Cl)NN1C(=O)c2ccccc2C1=O | -1.4 | -0.1 | 3.4 | -3 | 4 | 2.0 | -21 | -5
CCOc1ccc(NC(=O)CSc2nnc(-c3ccoc3C)n2CC2CCCO2)cc1 (stereo not given) | 2.3 | -1.1 | 0.4 | 29 | -1 | 4.6 | 0 | -4
Cc1c(C(=O)N/N=C/c2ccc(O)cc2)sc(=S)n1C | 5.7 | 1.8 | . | 26 | -12 | 3.8 | 9 | -5
CCOC(=O)c1c(N)nn(C(=O)C(C)(C)C)c1-c1ccccc1 | 0.5 | ? | 4.9 | -9 | -8 | -4.2 | -12 | -6
CC(C)c1ccc(NC(=O)C2CC(=O)Nc3nc4ccccc4n32)cc1 (stereo not given) | 0.9 | 0.9 | 3.7 | 0 | -5 | -4.4 | -4 | -2
COc1ccc2c(=O)c(-c3ccc(OC)c(OC)c3)coc2c1 | 12 | -1.3 | 0.7 | -8 | 0 | 1.7 | -3 | 1
O=[N+]([O-])c1ccc(S(=O)(=O)NCC2COc3ccccc3O2)cc1 (stereo not given) | 187* | 1.0 | 6.3 | -3 | -3 | -0.1 | 8 | -2
O=C(CSc1c(Cl)cccc1Cl)N1CCC(c2nc3ccccc3s2)CC1 | -5.5 | 0.3 | 5.2 | -26 | . | -1.8 | 18 | -4
